# Screening data (PubChem)
# D2 potentiator = potentiates the human D2 dopamine receptor allosterically | hit rate 0.23% among 360,000 | DiscoveRx D2 beta-arrestin cells, luminescence, 90 min; 100% = 57 uM dopamine signal | potentiation, % (test concentration not listed) | P14416; active = potentiation of 50% or more; inconclusive = 30% to 50%; inactive = 30% or less;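 note: compound concentration not given in the record; tested on top of an EC20 dose of dopamine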
#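 D2 cells co-treated with compound plus 50 nM dopamine (EC20) for 90 min at 37 deg C to detect potentiation. Beta-arrestin recruitment was read as enzyme-fragment luminescence after 1 h at ambient temperature. Full response was set by 57 uM dopamine.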
# Six1-Eya2 blk = blocks human Six1 binding to Eya2. Q15475+O00167. AlphaScreen GST-Six1/His-Eya2 binding, biochemical; hits give low values; control for the full effect not named in the record. activity change, % (test concentration not listed). hit rate 0.56% among 360,000; in the data active = activity change below about -65%; inconclusive = about -30% to -65%; inactive = above about -30%; note: % is set by controls: 0 for no effect and ±100 for the full control effect; compound concentration not given in the record
# Target sequence (O00167 whole entry, looked up): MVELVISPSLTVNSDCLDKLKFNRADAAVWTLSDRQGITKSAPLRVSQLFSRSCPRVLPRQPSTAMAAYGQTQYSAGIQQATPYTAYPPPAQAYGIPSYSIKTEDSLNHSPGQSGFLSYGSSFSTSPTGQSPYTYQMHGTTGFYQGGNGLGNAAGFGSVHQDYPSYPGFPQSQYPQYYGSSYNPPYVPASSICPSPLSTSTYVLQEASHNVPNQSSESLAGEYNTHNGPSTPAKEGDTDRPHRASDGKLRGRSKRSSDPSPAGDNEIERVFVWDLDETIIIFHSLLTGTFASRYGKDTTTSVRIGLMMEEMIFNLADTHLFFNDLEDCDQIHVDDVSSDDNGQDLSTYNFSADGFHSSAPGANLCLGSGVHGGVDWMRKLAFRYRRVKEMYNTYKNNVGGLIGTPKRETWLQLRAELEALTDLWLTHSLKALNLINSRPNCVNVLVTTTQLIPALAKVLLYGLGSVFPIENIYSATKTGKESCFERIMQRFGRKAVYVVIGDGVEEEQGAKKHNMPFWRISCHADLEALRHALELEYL
# Target sequence (Q15475 whole entry, looked up): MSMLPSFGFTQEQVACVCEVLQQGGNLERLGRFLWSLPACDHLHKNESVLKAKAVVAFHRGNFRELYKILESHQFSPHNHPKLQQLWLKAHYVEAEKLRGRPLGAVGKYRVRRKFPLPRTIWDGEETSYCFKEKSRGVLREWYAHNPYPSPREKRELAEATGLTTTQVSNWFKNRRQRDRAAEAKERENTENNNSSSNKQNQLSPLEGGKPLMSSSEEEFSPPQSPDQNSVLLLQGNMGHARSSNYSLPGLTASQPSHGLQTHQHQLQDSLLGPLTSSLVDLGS
#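 AlphaScreen with GST-Six1 and His-Eya2 (5X mix: 250 nM and 500 nM), glutathione donor and nickel acceptor beads; buffer 50 mM Tris pH 8.0, 300 mM NaCl, 1 mM TCEP; 1 h at 37 C in the dark.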
# D2 ag = human D2 receptor agonism in beta-arrestin assay. DiscoveRx PathHunter D2 beta-arrestin, luminescence, 90 min; 100% = 57 uM dopamine signal. activation, % (no concentration beside the values). hit rate 0.084% among 360,000. AID 624465; in the data active = activation above about 40%; inconclusive = about 15% to 40%; inactive = below about 15%; note: compound concentration not given in the record; the text of the record calls up to 30% inactive
#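 Agonist mode: compounds alone added to overnight-plated D2 PathHunter cells for 90 min at 37 C, with 57 uM final dopamine (EC100) defining full response. Beta-arrestin recruitment detected by chemiluminescent reagent, read after 1 h at ambient temperature.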
# TRPML1 agonist = human mucolipin-1 channel agonism; activation, % (test concentration not listed); hit rate 0.12% among 410,000; Q9GZU1; TRPML1-expressing cells, Ca2+ dye fluorescence, FDSS; host cell line not named in the record; reference of the full effect not given here; in the data active = activation above about 50%; inconclusive = about 30% to 50%; inactive = below about 30%; note: 0% is about no effect; the text of the record puts the active cut at 80%
#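 Agonist activity was taken from a 110 s kinetic Ca2+ dye read on the FDSS after pinning compounds onto TRPML1-DL cells. The cells were seeded at 1,500/well with Tet inducer, incubated about 16 h, then dye-loaded at room temperature.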
# CtBP-E1A inh = blocks the CtBP interaction with E1A; AlphaScreen GST-E1A/His-CtBP binding, 1536-well; hits give low values; control for the full effect not named in the record; activity change, % (concentration not given with the values); hit rate 0.49% among 340,000; AID 651724; in the data active means activity change below about -65%; inconclusive means about -30% to -65%; inactive means above about -30%; note: % is set by controls: 0 for no effect and ±100 for the full control effect
#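 Homogeneous bead-based format: GST-tagged E1A captured on glutathione donor beads, His-tagged CtBP on nickel acceptor beads; compounds precede bead addition by 2 h at 37 °C.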
# PINK1 modulator = modulators of PINK1 expression; PINK1 immunofluorescence, high-content cytometry, 24 h; Potency, µM (doses to about 76.6 µM), for inactives: top-dose activation (PINK1 increase), most hits filed as activators; hit rate 0.2% among 410,000; AID 624263; active = well fitted activation curve with a large enough effect; inconclusive = small, poorly fitted or top-dose-only effect; inactive = flat fitted curve, though single readings scatter; cell line not stated here;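 note: potency is the fitted concentration of half-maximal effect; % of control where 0% means no effect; nearly all actives have a fitted effect of over 65% in size; a mitochondrial uncoupler was the plate control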
#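 Stable cell line treated 24 h with compounds at 5 concentrations (CCCP controls), then fixed and immunostained for PINK1 plus nuclear and cell stains; PINK1 immunofluorescence quantified by laser-scanning microplate cytometry.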
# * hit, by the source's call; ? = inconclusive; . = not tested or not shown; & = joins results of further samples; [ ] = another dose, or the depositor's remark.
SMILES,D2 potentiator,Six1-Eya2 blk,D2 ag,TRPML1 agonist,CtBP-E1A inh,PINK1 modulator
CCCCCCn1c(N)c(C#N)c2ccc([N+](=O)[O-])cc2c1=O,-4,-3,-3.3,2.4,.,-0.7%
CN1C(C(=O)NCCc2cccs2)CC2Cn3c(nc4ccccc43)C21 (configuration not stated),5,7,0.0,-0.6,1,0.7%
CC(=O)Nc1ccc(Cl)cc1C(=O)O,18,5,-1.8,1.1,4,-1.3%
COc1ccc(OC)c(NC(=O)CN2C(=O)COc3ccc(S(=O)(=O)N4CCCC4)cc32)c1,-8,-1,0.9,-0.2,3,-0.2%
COc1ccc(CC(N)c2csc(Nc3cc(NCc4ccco4)ncn3)n2)cc1 (configuration not stated),-14,-65*,-4.8,0.4,-74*,4.6%
COc1ccc(S(=O)(=O)Nc2ccc(O)c3ccccc23)cc1,?,?,14,-0.3,?,0.6%
O=C(COC(=O)C1CCN(S(=O)(=O)c2cccs2)CC1)Nc1ccc(F)cc1Cl,-7,6,-2.1,1.4,8,1.7%
COc1ccccc1Cc1c(-c2ccc(OC)c(OC)c2)nc2ccc(C)cn12,-12,-13,-7.8,1.5,-8,?
COc1ccc(S(=O)(=O)N2CCC(C(=O)NC3CCCC3)CC2)cc1C,-4,-4,3.5,-0.6,-18,1.6%
CNc1nc2sc3c(c2c(=O)n1C)CC(C)(C)SC3,-16,-30,0.0,-1.4,-17,-2.0%
COc1ccc(NC(=O)CCN2CCCCC2)cc1,-12,-3,0.1,0.1,11,.
FC(F)(F)c1ccc(-c2noc(CN3CCCN(C4CCCCC4)CC3)n2)cc1,-4,-9,4.6,0.0,2,2.7%
CC(=O)c1ccc(N2CCN(S(=O)(=O)c3cn(C)cn3)CC2)cc1,-1,7,-2.2,0.5,-2,0.5%
C[C@H](NC(N)=O)C(=O)OCC(=O)Nc1ccc(OC(F)F)cc1,-3,2,-4.5,-0.1,10,3.5%
Cc1c(NS(=O)(=O)c2ccc(S(=O)(=O)c3ccccc3)s2)c(=O)n(-c2ccccc2)n1C,-2,-10,-12,-0.3,-9,-3.3%
Cc1ccc(NC(=O)c2ncn(CCCNCCCc3ccccc3)n2)cc1C,.,-6,-0.3,0.5,-4,1.5%
COC(=O)c1cccc(NC(=O)CCc2ccccc2)c1,-18,10,-1.7,-0.3,1,-0.9%
Cc1ccc(C)c(NC(=S)N2CCN(c3ccccn3)CC2)c1,-14,2,-2.3,-0.4,.,0.0%
O=C(CCNS(=O)(=O)c1ccc(Br)cc1)NCc1ccc(Cl)cc1,-7,3,6.3,0.6,4,0.9%
Cn1c(=O)c2c(nc(Oc3ccc(-c4ccccc4)cc3)n2C)n(C)c1=O,-4,2,-0.8,-0.5,1,-0.8%[38.3 µM]
COc1ccc(CNC(=O)C2CC(c3ccc(F)cc3)=NO2)cc1 (configuration not stated),-3,0,-1.1,2.0,5,3.5%[38.3 µM]
O=C(CSc1nc(-c2ccc(Cl)cc2)cs1)Nc1cccc([N+](=O)[O-])c1,-1,-2,-1.8,2.8,.,3.3%
O=C(NCc1nnnn1-c1ccc(F)cc1)c1ccc2ccccc2c1,-22,-2,3.8,-0.4,0,0.6%
COc1cc(C)c(S(=O)(=O)NOCc2ccc([N+](=O)[O-])cc2)c(C)c1C,-19,2,5.3,2.6,-23,6.1%
N#CCC(=O)N/N=C/c1cn(Cc2ccc(Cl)cc2Cl)c2ccccc12,-4,-1,-2.5,0.4,-1,5.9%
Cc1cc(Nc2ccccc2)n(-c2ccc(Br)cc2)n1,-1,13,2.3,2.0,9,4.1%
C/C(=C/C(=O)O)C(=O)Nc1cccc(C(F)(F)F)c1,-3,2,-1.6,0.2,.,-0.6%
COc1cc(SC)ccc1C(=O)Nc1ccccc1,-5,5,-4.2,1.3,7,-6.5%[38.3 µM]
CS(=O)(=O)N(CC(=O)Nc1ccccc1C(=O)N1CCOCC1)c1cccc([N+](=O)[O-])c1,-3,6,-1.6,-0.2,8,1.2%
CC(C)NCC1CCc2cc(CO)c([N+](=O)[O-])cc2N1 (configuration not stated),-32,-9,-4.9,-0.2,0,0.8%
CCN(CC)S(=O)(=O)c1ccc(N2CCCCC2)c(C(=O)Nc2ccccc2N2CCOCC2)c1,-6,4,-3.7,0.9,0,-0.3%
O=C(Nc1ccc([N+](=O)[O-])c(NC(=O)C2CCCO2)c1)C1CCCO1 (configuration not stated),-5,28,0.1,1.8,34,-1.4%
COC(CNC(=O)Cn1ncc2ccsc2c1=O)OC,4,6,0.3,2.8,8,0.1%
c1cncc(C2OCC3(CO2)COC(c2cccnc2)OC3)c1 (configuration not stated),-11,11,3.1,0.0,1,-0.2%
COc1ccc(-c2sc3ccc(OC)cc3c2C#Cc2ccccn2)cc1,-4,35,2.5,1.3,42,1.3%
CNNC(=S)Nc1ccc(Cl)cc1,9,-2,-23,3.3,2,-0.3%

# Record cards, from the list above. Values in the order: D2 potentiator	Six1-Eya2 blk	D2 ag	TRPML1 agonist	CtBP-E1A inh	PINK1 modulator
# Listed for COc1ccc(-c2sc3ccc(OC)cc3c2C#Cc2ccccn2)cc1 → -4	35	2.5	1.3	42	1.3%
# Listed for N#CCC(=O)N/N=C/c1cn(Cc2ccc(Cl)cc2Cl)c2ccccc12 → -4	-1	-2.5	0.4	-1	5.9%
# Listed for CNNC(=S)Nc1ccc(Cl)cc1 → 9	-2	-23	3.3	2	-0.3%
# Listed for COc1cc(SC)ccc1C(=O)Nc1ccccc1 → -5	5	-4.2	1.3	7	-6.5%[38.3 µM]
# Listed for COC(CNC(=O)Cn1ncc2ccsc2c1=O)OC → 4	6	0.3	2.8	8	0.1%

# New compounds follow.
SMILES,D2 potentiator,Six1-Eya2 blk,D2 ag,TRPML1 agonist,CtBP-E1A inh,PINK1 modulator
COc1cccc(/C=N/N2CCN(C3c4ccccc4-c4ccccc43)CC2)c1O,-8,0,-0.1,1.1,-13,0.9%
Cc1ccc(C)c(C(C)NC(=O)CC#N)c1 (configuration not stated),-7,2,-4.2,0.7,.,0.0%
O=C(NN=C(Cc1ccccc1)Cc1ccccc1)c1ccccc1O,5,-2,2.2,1.0,5,0.7%
CN(C)S(=O)(=O)c1cccc(NC(=O)c2ccc(OC(F)(F)F)cc2)c1,-31,0,0.6,0.0,-6,4.2%
COC(=O)N/N=C/c1ccccc1,5,3,-7.7,-0.3,4,-0.6%
COc1ccc(S(=O)(=O)N[C@@H](CC(C)C)C(=O)O)cc1,-23,-4,-1.6,0.8,-11,.
CC(Sc1ncnc2sccc12)C(=O)Nc1ccc(S(N)(=O)=O)cc1 (configuration not stated),-5,-13,3.9,-0.1,-8,1.4%
CCC(C(=O)OCC(=O)Nc1c(Cl)cccc1Cl)c1ccccc1 (configuration not stated),-26,-3,-5.6,-0.6,-5,-1.7%
CCCCn1nc(C(=O)Nc2cccc(C(=O)NC3CC3)c2)c2ccccc2c1=O,13,0,4.0,2.4,-3,1.4%
COc1cc(OC)cc(C(=O)NCC(C)NC(=O)c2cc(OC)cc(OC)c2)c1 (configuration not stated),-4,-1,-2.3,2.0,-26,1.1%
COc1ccc(NC(=O)COC(=O)/C=C/c2cnc3ccccc3n2)cc1,-8,-2,-5.0,2.5,?,0.2%
COc1cc(/C=N/n2nnnc2N)ccc1OC(C)=O,-3,-26,-0.3,-0.2,-9,0.2%

# Two entries picked at random from those above, as already listed:
SMILES,D2 potentiator,Six1-Eya2 blk,D2 ag,TRPML1 agonist,CtBP-E1A inh,PINK1 modulator
Cc1cc(Nc2ccccc2)n(-c2ccc(Br)cc2)n1,-1,13,2.3,2.0,9,4.1%
Cn1c(=O)c2c(nc(Oc3ccc(-c4ccccc4)cc3)n2C)n(C)c1=O,-4,2,-0.8,-0.5,1,-0.8%[38.3 µM]

# Following part.
SMILES,D2 potentiator,Six1-Eya2 blk,D2 ag,TRPML1 agonist,CtBP-E1A inh,PINK1 modulator
COc1cc(NC(=O)C(=O)N2CCN(C)CC2)c(OC)cc1Cl,-3,13,-3.8,-0.4,1,-0.2%
CC[C@@H](C)C(NC(=O)OC(C)(C)C)c1cn([C@@H](Cc2ccc(O)cc2)C(=O)N2CCN(C(=O)OC(C)(C)C)CC2)nn1 (some centres not stated),-4,6,4.5,-0.3,2,-1.3%
CCOC(=O)N1CCN(C(=S)Nc2ccc(C)cc2C)CC1,-1,3,-0.7,-0.2,5,1.6%
CC(C)NC(=O)c1nc2c(nnn2Cc2cccc(Cl)c2)c(=O)[nH]1,-2,1,0.5,0.3,0,0.1%
Cc1nc2nc(SCC(=O)NCc3ccco3)nn2c(C)c1Cc1ccccc1,-15,2,-0.5,0.2,-21,2.3%
CCN1C(=O)[C@H]2[C@@H](c3ccc(Cl)cc3)N3C(=O)CN(Cc4ccccc4)C(=O)[C@@]3(C)[C@H]2C1=O,-8,5,-2.7,0.1,7,0.5%
CC(=O)Nc1cccc(-c2nc3ccccc3c(=O)o2)c1,24,-1,1.2,-0.6,4,-0.5%
Cc1cc(C)c(N=C2SCC(=O)N2Cc2ccco2)c(C)c1,-10,3,-3.5,1.7,2,2.1%
O=C(NCCc1ccc(Cl)cc1)C1=CC=CN2CCS(=O)(=O)N=C12,3,9,-0.3,-0.7,.,0.2%
Cc1nc2scc(C)n2c(=O)c1S(=O)(=O)N1CCN(c2ccc([N+](=O)[O-])cc2)CC1,-2,-1,-0.3,0.1,1,1.8%
Cc1ccc(C(=O)CC(c2cccs2)S(=O)(=O)c2ccc(C)cc2)cc1 (configuration not stated),-15,7,0.1,0.2,5,-2.1%
S=C(NCCCCc1ccccc1)NCc1ccccc1,-29,4,-0.2,0.3,-13,2.8%
O=C(NCCCn1ccnc1)Nc1ccc(Cl)cc1Cl,-25,0,-0.6,-0.1,-2,-0.9%
Cc1cccc(C(=O)NCCc2csc(C)n2)c1,0,-2,-2.8,-0.2,4,0.8%
CSCCC(NS(=O)(=O)c1ccc2c(c1)oc(=O)n2C)C(=O)NC1CCN(Cc2ccccc2)CC1 (configuration not stated),-5,-4,-1.2,0.5,5,0.0%
CCCCCCN1C[C@@H](O)[C@H](n2cc(COC(=O)c3ccccc3)nn2)C[C@@H]1c1ccc(C)cc1,1,4,-6.1,0.7,6,0.2%
COc1ccc(NC(=O)CSC2CC(=O)N(c3ccc4c(c3)OCCO4)C2=O)cc1 (configuration not stated),-5,1,-4.4,0.2,3,0.1%
Cn1nnnc1SC1CC(=O)N(c2ccccc2)C1=O (configuration not stated),-12,-3,-6.0,-0.6,1,2.7%
O=C(NCc1cccc(Cl)c1)C1CCC(=O)N(CC2CCCCC2)C1 (configuration not stated),2,8,-0.8,-0.3,-2,-0.1%
Cc1nnc(SCc2c(Cl)cccc2[N+](=O)[O-])s1,2,3,5.8,0.1,0,2.1%
CCOc1ccccc1C(=O)NCC(=O)OCC(=O)N1C(C)CCCC1C (configuration not stated),-19,4,3.3,-0.6,4,0.0%
O=C(Nc1ccccc1C(F)(F)F)N1CCN(c2ccc3nnc(-c4ccc(F)cc4)n3n2)CC1,-12,-12,-2.3,-0.3&2.5,-17,3.0%[38.3 µM]
COc1ccc([C@@H]2[C@@H]3C(=O)N(C(C)(C)C)C(=O)[C@@H]3[C@]3(C)C(=O)N(c4cccc(Br)c4)C(=O)N23)cc1,-8,4,-4.9,3.0,-7,1.1%
